Marburg entry inh: Marburg virus entry inhibition. Marburg virus pseudotyped entry inhibition, cell reporter; control for the full effect not named in the record; about a third of the inactives were read at about 46 µM. Potency, µM (doses to about 37.8 µM), for inactives: at the highest dose activity change, negative = inhibition, most hits filed as inhibitors. 300,000 tested, 1.8% active. AID 540276; active = well fitted inhibition curve with a large enough effect; inconclusive = small, poorly fitted or top-dose-only effect, or effect the other way; inactive = flat fitted curve, though single readings scatter; tested in HEK293 cells; about a fifth of its hits are not listed in these tables; also: luciferase read-out
The depositor's hits bear a star; ? = inconclusive; & = joins results of further samples; [ ] = remark or other dose. % is scaled to controls: 0 for no effect and ±100 for the full control effect; potency is read from the fitted curve at half-maximal effect. A portion of the library. The share of hits here may be higher or lower than overall.

| SMILES | Marburg entry inh |
| --- | --- |
| COc1ccc(-c2cnnc(CCCn3ccnc3-c3ccccc3)n2)cc1 | ? |
| CC1(C)[C@H](C(=O)NC2CCCCCC2)CC[C@]1(C)C(=O)O | 20.9% |
| O=C1Nc2ccccc2[C@@]12O[C@H](COc1ccccc1)CC1=C2CCC1 | 9.8%[14.2 µM] |
| CCCNC(=O)OC[C@H]1O[C@H](CCON=C(C)CCC(=O)OC[C@H]2O[C@H](C#Cc3ccccc3)C=C[C@H]2Oc2ccc(C)cc2)C=C[C@H]1Oc1ccc(OC)cc1 | -28.6%[14.2 µM] |
| COc1ccc(N/C(=N/c2nc(C)cc(C)n2)NC(=O)C(C)C)cc1OC | 7.8% |
| CC(=O)OC[C@H]1O[C@H](CCON=C[C@@H](C)[C@H](OCc2ccccc2)C(C)C)C=C[C@@H]1OC(C)=O | ? |
| COc1cc([C@@H]2C(C#N)=C(N)Oc3cc(C)n(CCN4CCOCC4)c(=O)c32)cc(OC)c1OC | -0.2% |
| COc1ccc(N2C=C3C(=O)C(C)(OC(=O)C4CCCC4)C(=O)C=C3C=C2c2ccsc2)cc1 (stereo not drawn) | ? |
| COc1ccc(OC)c([C@H](O)c2coc3ccc(O)c(CN4CCOCC4)c23)c1 | 15.8% |
| C=CC1=C2C=C(C3CC3)N(c3ccc(OC)cc3)C=C2C(=O)C(C)(OC(=O)c2ccco2)C1=O (stereo not drawn) | -21.5%&-21.5%[14.2 µM] |
| CC(=O)N1CCN([C@@H]2c3cccc4cccc(c34)[C@H]2NS(=O)(=O)c2ccccc2)CC1 | -6.8% |
| CCN1CCCC(C2NC3CCCCC3S2)C1 (stereo not drawn) | 0.5% |
| CN1CCN([C@@H]2Cc3ccccc3Sc3ccc(Cl)cc32)CC1 | ? |
| COC(=O)CC1=C(C(=O)OC)[C@H](c2cccc(OCC(N)=O)c2)C(C#N)=C(N)O1 | -29.8% |
| COc1ccc2c(c1)[C@@]1(OCCC=C[C@@H]1C)C(=O)N2CC=C(C)CCC=C(C)C | -10.0%[14.2 µM] |
| C=CC[C@@H]1C=C[C@@H](Oc2ccc(OC)cc2)[C@H](COC(=O)c2ccc(Br)cc2)O1 | -4.5%[14.2 µM] |
| CC(C)[C@@H](OCc1ccccc1)[C@H](C)/C=N\OC[C@@H](C)[C@H](OCc1ccccc1)C(C)C | 25.4%[14.2 µM] |
| COC1=CC2C(=O)C(C(c3ccccc3)C2C)C1(O)c1cccc(OC)c1 (stereo not drawn) | 15.2%[14.2 µM] |
| O=C1CCC[C@@H](C(C(=O)OCc2ccccc2)C(=O)OCc2ccccc2)C1 | ? |
| COCCCn1c2nc3ccccc3nc2c2c(=O)n(C[C@H]3CCCO3)cnc21 | 14.7% |
| Cc1ccc(C=CC2=C[C@]3(C)C[C@]2(C)[C@H](c2ccc(C)cc2)CC3=O)cc1 | -3.6%[14.2 µM] |
| Cc1c(N2C(=O)S[C@H](CC(=O)O)C2=O)c(=O)n(-c2ccccc2)n1C | 11.7% |
| O=C(C=Cc1ccccc1)Nc1cccc(C(=O)NCCc2ccccc2)c1 | ? |
| COC[C@@H](OC(C)=O)[C@H]1OCc2ccccc2[C@@H]1C=Cc1ccccc1 | 14.2%[14.2 µM] |
| CCN1C(=NCc2ccccc2)N[C@@H](CCc2ccccc2)[C@H](C(=O)OC)[C@H]1C | -18.2%[14.2 µM] |
| CC(=O)Oc1ccccc1[C@@H]1OC(=O)c2ccccc2N1C(C)=O | -23.5% |
| CC(=O)C1=CN(CCc2c[nH]c3ccccc23)C(=O)NC1c1ccccc1 (stereo not drawn) | 2.9%[14.2 µM] |
| CCO[C@H](c1cc(OC)cc([N+](=O)[O-])c1OC)[C@H](C)[C@@H](OC)[C@H](C)/C=C/CC(=O)OC | 1.2%[14.2 µM] |
| CCOC(=O)CN1C(=O)NC(c2cccc(F)c2)C(C(C)=O)=C1C (stereo not drawn) | 12.7%[14.2 µM] |
| CC(C)CON=C1C[C@@H](O)[C@@H](O)[C@@H]2[C@H]3C(=O)N(Cc4ccc5c(c4)OCO5)C(=O)[C@@H]3CC[C@H]12 | ? |
| N#CC1C(=O)N=C(SCC(=O)c2ccc(Br)cc2)N=C1c1cccs1 (stereo not drawn) | -3.0%[46.1 µM] |
| CC1(C)O[C@@H](C(O)(c2ccccc2)c2ccccc2)[C@H](C(O)(c2ccccc2)c2ccccc2)O1 | -19.0%[14.2 µM] |
| CCCCS(=O)(=O)N1CCc2nc(-c3ccccc3)c3c(c2C1)CO[C@@H](C)C3 | ? |
| O=C1[C@@H]2[C@H]3[C@H](O)[C@H](O)CC(=NOC[C@@H](O)COCc4ccco4)[C@H]3CC[C@H]2C(=O)N1C[C@@H]1CCCO1 | 3.6%[14.2 µM] |
| C=CCCC1(CCC)C(=O)C(=C(O)c2ccccc2)C(=O)C(CCC)=C1OC (stereo not drawn) | -1.7%[14.2 µM] |
| CC[C@@H](C)CN1C(=O)N[C@@H](c2ccccc2)C(C(=O)OC)=C1C | -19.9%[14.2 µM] |
| COC(=O)C(C(C)=O)C(NC(=O)NCc1ccccc1)c1ccccc1 (stereo not drawn) | 25.3%[14.2 µM] |
| CCN(CC)C(=O)N1CCC2CCCCC2C1CN1C(=O)C2=C(CCCC2)C1=O (stereo not drawn) | -13.7% |
| COC(=O)C(C(C)=O)C(=O)C(Cc1ccccc1)NC(=O)OCc1ccccc1 (stereo not drawn) | ? |
| COc1ccc(COC(=O)N/N=C2/C[C@@H](O)[C@@H](O)[C@@H]3[C@@H]4C(=O)N(Cc5ccccc5)C(=O)[C@H]4CC[C@H]23)cc1 | -25.3%[14.2 µM] |

Pulled by compound from the list above:
| SMILES | Marburg entry inh |
| --- | --- |
| C=CCCC1(CCC)C(=O)C(=C(O)c2ccccc2)C(=O)C(CCC)=C1OC (stereo not drawn) | -1.7%[14.2 µM] |
| CC[C@@H](C)CN1C(=O)N[C@@H](c2ccccc2)C(C(=O)OC)=C1C | -19.9%[14.2 µM] |

(further entries)
canonical_smiles | Marburg entry inh
COc1cc(C[C@H](C)N)c(OC)cc1I | ?
C[C@H]1Cc2c(COc3ccccc3)nc3c(c2CO1)CN(C(=O)Nc1cccc(C#N)c1)CC3 | 2.5%&20.7%&2.5%[14.2 µM]
CC(=O)OC[C@H]1O[C@@H](ON=C2C[C@@H](O)[C@@H](O)[C@@H]3[C@H]4C(=O)N(C5CCCCC5)C(=O)[C@@H]4CC[C@@H]23)[C@H](OC(C)=O)[C@@H](OC(C)=O)[C@H]1OC(C)=O | -25.3%[14.2 µM]
O=C(O)C1=C(O)CCCC1 | 1.6%
CCCCCCN1CCN(C2CN(Cc3cn(Cc4ccc(C(F)(F)F)cc4)nn3)S(=O)(=O)C2)CC1 (stereo not drawn) | ?
COc1ccccc1[C@H]1/C(=C(\O)c2ccc(C)cc2)C(=O)C(=O)N1CCN1CCOCC1 | 14.6%
C=CCOC(=O)N[C@@H](c1coc2ccccc2c1=O)[C@@H](C)C=CCC(=O)OC | -3.2%[14.2 µM]
COc1ccc([C@]23Cc4cc(C#N)ccc4[C@H](O2)c2c(cc(-c4ccccc4)oc2=O)O3)cc1 | 7.0%[14.2 µM]
CCOC(=O)CN1C(=O)NC(CCc2ccccc2)C(C(C)=O)=C1C (stereo not drawn) | 3.6%[14.2 µM]
CCOC(=O)CC1=C(C(=O)OCC)[C@H](c2ccc(OC)c(OC)c2)C(C#N)=C(N)O1 | 0.9%
COC(=O)NC(c1cccc(F)c1)C(C(C)=O)C(=O)OC (stereo not drawn) | 13.0%[14.2 µM]
COc1cc(C(CC2=C(c3ccccc3)Cc3ccccc32)NC(=O)C(F)(F)F)cc(OC)c1OC (stereo not drawn) | 8.2%[14.2 µM]
CC(C)CO/N=C1/C[C@@H](O)[C@@H](O)[C@@H]2[C@H]3C(=O)N(c4ccc(F)cc4F)C(=O)[C@@H]3CC[C@H]12 | ?
C[C@H]1CC[C@H]2C(=O)O[C@H](COc3ccc(C(C)(C)C)cc3)CN2[C@@H]1c1ccc(Br)cc1 | -11.8%[14.2 µM]
CCOC(=O)/C=c1\s/c(=C(/C#N)C(=O)OCC)n(-c2ccccc2)c1=O | -6.1%[46.1 µM]
CC1CCc2cc(F)cc3c(O)c(C(=O)Nc4cnccn4)c(=O)n1c23 (stereo not drawn) | 4.6%
Cc1cccc(C)c1OC[C@H](O)CNS(=O)(=O)c1ccccc1C(=O)N1CCOCC1 | 12.0%[46.1 µM]
CCn1c(S[C@@H](C)C(=O)O)nc2sc3c(c2c1=O)CCC3 | 10.3%[46.1 µM]
C/C(CCN1CCCc2nc(C)c(C)cc21)=N\OC[C@@H](O)COCc1ccco1 | ?
COC(=O)C/C=C\[C@@H](C)[C@@H](/C=N\OC[C@@H](C)[C@H](OCc1ccccc1)C(C)C)NS(=O)(=O)c1ccc(C)cc1 | -14.2%[14.2 µM]
COCCN1C(=O)NC(c2ccccc2)C(C(=O)OC)=C1C (stereo not drawn) | 8.2%[14.2 µM]
C[C@H](NC(=O)N1CCc2nc(COc3ccccc3)c3c(c2C1)CO[C@@H](C)C3)c1ccccc1 | 3.9%&3.9%[14.2 µM]
Cc1ccc(N(C[C@@H](O)CN(C)C)S(=O)(=O)c2ccccc2)cc1 | 1.1%
CCOC(=O)CN1C(=O)NC(c2cccc(C(F)(F)F)c2)C(C(=O)OC)=C1C (stereo not drawn) | -11.4%[14.2 µM]
CCOc1ccc([C@H]2C[C@H](c3ccccc3)Nc3nc(N)nn32)cc1 | 0.7%
C[N+]1=C(/C=N/O)CCCC1 | 2.4%&2.4%
COc1cc2c(cc1OC)[C@@H]1O[C@](c3ccsc3)(C2)OC2=C1C(=O)CC(C)(C)C2 | -12.1%[14.2 µM]
C[C@H]1CN(S(=O)(=O)c2cccc3cnccc23)CCN1 | ?
CC1(OC(=O)c2cnc3ccccc3n2)C(=O)C=C2C=C3CCCN3C=C2C1=O (stereo not drawn) | 1.7%&1.7%[14.2 µM]
C[C@H](N)C(=O)OC(C)(C)Cc1ccc(Cl)cc1 | -14.3%

Structural class: the compounds so far containing a COOH group.
canonical_smiles | Marburg entry inh
CC1(C)[C@H](C(=O)NC2CCCCCC2)CC[C@]1(C)C(=O)O | 20.9%
Cc1c(N2C(=O)S[C@H](CC(=O)O)C2=O)c(=O)n(-c2ccccc2)n1C | 11.7%
O=C(O)C1=C(O)CCCC1 | 1.6%
CCn1c(S[C@@H](C)C(=O)O)nc2sc3c(c2c1=O)CCC3 | 10.3%[46.1 µM]

Molecules above containing two or more sulfur atoms:
canonical_smiles | Marburg entry inh
N#CC1C(=O)N=C(SCC(=O)c2ccc(Br)cc2)N=C1c1cccs1 (stereo not drawn) | -3.0%[46.1 µM]
CCn1c(S[C@@H](C)C(=O)O)nc2sc3c(c2c1=O)CCC3 | 10.3%[46.1 µM]

Next compounds
canonical_smiles | Marburg entry inh
COC(=O)C12C[C@H](C)C3C(C)C(c4ccccc4C31)N2C(=O)C(F)(F)F (stereo partly drawn) | -25.2%[14.2 µM]
C#CCCCO/N=C1\C[C@@H](O)[C@@H](O)[C@@H]2[C@@H]3C(=O)N(Cc4ccc5c(c4)OCO5)C(=O)[C@@H]3CC[C@@H]12 | -6.7%[14.2 µM]
COC(=O)C/C=C\[C@@H](C)[C@@H](/C=N\OCC[C@H]1C=C[C@H](OC(C)=O)[C@@H](COC(C)=O)O1)NS(=O)(=O)c1ccc(C)cc1 | ?
CN1CCC2(CC1)[C@H]1CN(C)CC=C1C(C#N)=C(N)C2(C#N)C#N | -8.6%
COc1ccc(C2=C[C@H](c3cccc(OC)c3)n3nnnc3N2)cc1 | -13.8%[46.1 µM]
CCOC(=O)N/N=C1/C[C@@H](O)[C@@H](O)[C@@H]2[C@@H]3C(=O)N(C[C@@H]4CCCO4)C(=O)[C@H]3CC[C@@H]12 | 5.7%[14.2 µM]
COC(=O)[C@](C)(N)Cc1ccc(O)cc1 | 7.1%
C=CC1=C2C=C(C3CC3)N(C(CO)CO)C=C2C(=O)C(C)(OC(=O)c2ccco2)C1=O (stereo not drawn) | -13.9%&-13.9%[14.2 µM]
CCCCCCC(=O)Cc1cc(OC)c(OC)cc1C=C(C(C)=O)C(=O)OC | -10.7%[14.2 µM]
CCOC(=O)[C@@](O)(C1C(=O)CC(C)(C)CC1=O)C(F)(F)F | 15.4%[46.1 µM]
CCCC[C@H](CCC(=O)Nc1ccc(C(=O)OCC)cc1)C(=O)O | 2.5%
C/C(CCN1CCCc2nc(C)c(C)cc21)=N\O[C@H](C)CN1CCCc2nc(C)c(C)cc21 | -41.3%[14.2 µM]
O=C1[C@H]2[C@H]3[C@H](O)[C@H](O)C/C(=N\OCc4ccccc4)[C@@H]3CC[C@H]2C(=O)N1C[C@@H]1CCCO1 | 6.1%[14.2 µM]
CCOC(=O)OC[C@H]1O[C@H](C#Cc2ccc(F)cc2F)C=C[C@@H]1OC(=O)OCC | ?
CCCCCCCC=CC1=CC2(C)CC1(C)C(CCCCCCC)CC2=O (stereo not drawn) | 17.0%[14.2 µM]
C=CCC1(c2ccccc2)Oc2ccccc2-c2nc3cc(Cl)c(Cl)cc3nc21 (stereo not drawn) | ?
CCOC(=O)C1=CN(CCNC(=O)OC(C)(C)C)C(=O)NC1c1ccccc1 (stereo not drawn) | 20.7%[14.2 µM]
Nc1ccc(C(=O)OCC2=NC3C=c4ccccc4=CC3=N2)cc1 (stereo not drawn) | 1.64µM*
COc1ccccc1C1c2c(oc3ccc(Cl)cc3c2=O)C(=O)N1c1cc(C)on1 (stereo not drawn) | -6.4%
N#CCCN(CC#Cc1ccccc1)OCc1ccccc1 | 20.7%&20.7%[14.2 µM]
CC(C)=CCC/C(C)=C/CO/N=C1/C[C@@H](O)[C@@H](O)[C@@H]2[C@@H]3C(=O)N(Cc4ccc5c(c4)OCO5)C(=O)[C@H]3CC[C@@H]12 | -16.6%[14.2 µM]
COC(=O)C1=C(C(=O)OC)[C@@H]2N(CC=C(C)C)c3ccccc3[C@@]23CCC(=O)N(CCc2ccccn2)C3=N1 | 12.0%[14.2 µM]
